Screening results as filed in PubChem BioAssay.
CBX7 AlphaScr: CBX7 inhibition, primary AlphaScreen. O95931. AlphaScreen His6-CBX7 / biotin-H3K27me3 peptide binding; active compounds read low. normalised signal (fraction of DMSO) (concentration not given with the values). 66,000 tested, 1.1% active. AID 1224903; in the data active means normalised signal below about 0.5;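 further: 100 nL library stock added to about 20 µL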
Target sequence (O95931 whole entry, looked up): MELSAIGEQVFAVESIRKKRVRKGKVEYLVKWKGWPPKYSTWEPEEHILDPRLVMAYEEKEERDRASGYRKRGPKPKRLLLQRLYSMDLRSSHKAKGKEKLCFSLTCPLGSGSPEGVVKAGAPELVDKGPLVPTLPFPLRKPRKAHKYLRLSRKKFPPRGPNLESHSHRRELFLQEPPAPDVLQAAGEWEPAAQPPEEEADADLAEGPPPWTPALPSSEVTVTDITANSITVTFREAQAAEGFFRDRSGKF
CBX7 AlphaScr z-score: further read-out of CBX7 AlphaScr, marked with its call; z-score; measured here: z-score of CBX7 signal; some inactives read as strong as hits; reference of the scale not given here;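 same signal on another scale; lower means less binding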
* hit, by the source's call; & = joins results of further samples.

SMILES	CBX7 AlphaScr	CBX7 AlphaScr z-score
Cc1ccc(S(=O)(=O)Nc2nc(C)cc(-n3nc(C)cc3C)n2)cc1	1.22	2.41
O=C(Nc1nnc(N2CCCCC2)s1)Nc1ccccc1C(F)(F)F	0.999	-0.0387
COc1ccc2c(c1)c(/C=C/c1nc3ccccc3c(=O)n1-c1ccccc1)c(C)n2C	1.06	0.216
O=C(Nc1nc2ccccc2n1CCN1CCCC1)c1ccc(Cl)cc1	0.979	-0.804
CCOC(=O)Cc1nnc2c(Nc3cccc(Br)c3)nc3nonc3n12	1.22	1.02
Cc1ccc(-n2cc(-c3ccccc3)nc2SCC(=O)NC2CCCCC2)cc1	0.879	-3.97
CC1CCN(c2ncnc3ccc(Br)cc23)CC1	0.977	-0.284
COc1cc(NC(=O)CNC(=O)Cn2cnc3ccccc3c2=O)cc(OC)c1OC	1.05	1.48
Cc1c2c(nc3c(C(=O)NCCC(C)C)cnn13)CCCC2	0.959	-1.21
Cc1ccc(CNC(=O)CN2CCN(Cc3ccc(C)cc3)C2=O)cc1	1.14	2.37
Nc1nonc1-c1noc(-c2ccccc2F)n1	1.08	2.19
CN(C1CCCCC1)S(=O)(=O)c1ccc(C(=O)Nc2ccc(-c3nc4ccccc4[nH]3)cc2)cc1	1	0.0374
Cc1ccc2nc(NCc3ccccc3)nc(-c3ccccc3)c2c1	2.01	18.3
O=C(NCCN1CCOCC1)c1nn2c(c1Cl)NC(c1cccs1)CC2C(F)(F)F (configuration not stated)	1.19	1.97
Cc1ccc(C2=CSC3=NCCN23)cc1C	1.02	0.473
COc1ccc(CN2CC(C(=O)NC3CCCC3)CC2=O)cc1 (configuration not stated)	1.01	0.43
O=C(c1cc2ccccn2n1)N1CCN(Cc2ccccc2)CC1	1.04	1.36
CN1CCN(CC(O)Cn2c3ccccc3c3ccccc32)CC1 (configuration not stated)	0.879	-1.45
COc1ccccc1-c1cc2nc(C)c(CCC(=O)Nc3ccccc3C(N)=O)c(C)n2n1	0.999	-0.0135
CC(=O)N1CCc2cc(S(=O)(=O)NC(Cc3ccccc3)C(=O)Nc3cccc(C)c3)ccc21 (configuration not stated)	0.888	-2.07
COc1ccc(-n2nc3c(c2NC(=O)c2ccc(C)c(C)c2)CSC3)cc1	0.902	-1.78
CCCC1=Nc2cc(C(=O)NC(C)c3ccc4c(c3)OCCO4)ccc2Sc2ccccc21 (configuration not stated)	0.886	-5.87
COc1cc(C2C(=O)N(C3CCCCCC3)CC(=O)N2C2CC2)ccc1OC(C)C (configuration not stated)	1	0.0425
COc1ccc2c(c1)c(=O)c(S(=O)(=O)c1ccc(F)cc1)cn2CC(=O)Nc1ccccc1	0.899	-1.46
O=C(CCc1nc(-c2ccccc2F)no1)NCc1cccs1	1.02	0.429
COc1ccc(CCNC(=O)c2cc(Nc3cc(C)cc(C)c3)nc3ccccc23)cc1OC	1.08	1.23
CCCc1nc2ccccc2n1CC(O)COCC1CC=CCC1 (configuration not stated)	0.949	-0.795
COc1ccc(-c2nc(CS(=O)(=O)CC(=O)NCCN3CCCC3)c(C)o2)cc1	1.02	0.63
Cc1cccc(OCC(=O)Nc2cc(-c3nn4c(C)nnc4s3)ccc2C)c1	0.99	-0.289
CC(=O)N1CCC(N(C(=O)Nc2ccccc2)C(C)C)CC1	1.1	0.102

Seven of the compounds above, with values under each structure:
Screens in order – CBX7 AlphaScr, CBX7 AlphaScr z-score
O=C(Nc1nnc(N2CCCCC2)s1)Nc1ccccc1C(F)(F)F
→ 0.999, -0.0387
Cc1cccc(OCC(=O)Nc2cc(-c3nn4c(C)nnc4s3)ccc2C)c1
→ 0.99, -0.289
CCCC1=Nc2cc(C(=O)NC(C)c3ccc4c(c3)OCCO4)ccc2Sc2ccccc21 (configuration not stated)
→ 0.886, -5.87
CCOC(=O)Cc1nnc2c(Nc3cccc(Br)c3)nc3nonc3n12
→ 1.22, 1.02
COc1ccc(-n2nc3c(c2NC(=O)c2ccc(C)c(C)c2)CSC3)cc1
→ 0.902, -1.78
COc1cc(NC(=O)CNC(=O)Cn2cnc3ccccc3c2=O)cc(OC)c1OC
→ 1.05, 1.48
O=C(c1cc2ccccn2n1)N1CCN(Cc2ccccc2)CC1
→ 1.04, 1.36

Reformatted field by field: part of the list above
Cc1ccc(-n2cc(-c3ccccc3)nc2SCC(=O)NC2CCCCC2)cc1
  CBX7 AlphaScr = 0.879 | CBX7 AlphaScr z-score = -3.97
COc1ccccc1-c1cc2nc(C)c(CCC(=O)Nc3ccccc3C(N)=O)c(C)n2n1
  CBX7 AlphaScr = 0.999 | CBX7 AlphaScr z-score = -0.0135

More records:
SMILES	CBX7 AlphaScr	CBX7 AlphaScr z-score
Cc1ccc(Cn2c(C3CC(=O)N(Cc4ccccc4)C3)nc3ccccc32)cc1 (configuration not stated)	0.839	-1.01
Cc1ccc(-c2nn(CCC(=O)Nc3ccc(F)cc3)c(=O)c3ccccc23)cc1	1.06	1.79
CCc1ccc(NC(=O)CSc2nc3nc(C)c(Cc4cccc(C)c4)c(C)n3n2)cc1	1.1	1
Cc1[nH]c2c(C(F)(F)F)cccc2c1CCNC(=O)Cn1nc(C)c2ccccc2c1=O	0.971	-0.527
O=C(NC1CC1)c1cc(=O)[nH]c2ccc(S(=O)(=O)N3CCCCC3)cc12	0.93	-0.933
COc1ccc(S(=O)(=O)N2CCCCCC2)cc1	1.01	0.0376
O=C(NC1CC1)C1CCN(c2nnc(-n3cccc3)s2)CC1	1.01	0.575
Cc1nc2ncnn2c(C)c1CCC(=O)NCc1ccc(F)cc1	1.06	1.21
Cc1ccc(-c2noc(CCC(=O)NCCCN3CCC(Cc4ccccc4)CC3)n2)cc1	1.11	1.68
O=C(N1CCN(c2nc(-c3ccccc3)c3cc(Br)ccc3n2)CC1)C(F)(F)F	1.39	1.52
CC(=O)Nc1nonc1NC(=O)CSc1ncccn1	1.07	1.05
CCCCc1ccc(-c2nc(Nc3ccc(Oc4ccccc4)cc3)c3ccccc3n2)cc1	1.25	6.79
CCOc1ccc(NC(=O)c2c(NCc3ccc(OC)cc3)sc3c2CCC3)cc1	0.842	-8.2
O=C(Nc1ccc2oc(-c3ccncc3)nc2c1)c1ccc(Br)cc1	1.11	1.92
COc1cccc(C(=O)Nc2nc3c(s2)C(=O)CC(C)(C)C3)c1	1	0.14
Cc1ccc(-c2nc(CS(=O)(=O)CC(=O)NC3CCC(C)CC3)c(C)o2)cc1 (configuration not stated)	0.909	-0.19
CCOC(CNC(=O)C1CCCN(Cc2nc(-c3ccc(Cl)cc3)oc2C)C1)OCC (configuration not stated)	1.07	1.96
O=C(CSc1nnc(Cc2cc(=O)[nH]c(=O)[nH]2)n1-c1ccccc1)c1ccccc1	1.05	1.71
COc1ccc2nc(C)cc(Nc3cccc(Cl)c3)c2c1	0.961&0.921	-0.501&-0.346
CC(=O)Nc1ccc(NC(=O)C2CC(=O)N(c3ccccc3Cl)C2)cc1 (configuration not stated)	0.997	-0.128
COc1ccc(-c2cc3nc(C)c(CCC(=O)NCc4ccccc4OC)c(C)n3n2)c(OC)c1	1.14	1.81
CCOC(=O)C(C)n1cnc2c(nnn2-c2ccc(OC)cc2)c1=O (configuration not stated)	1	0.0689
Clc1ccc(-c2cn3nc(-c4ccccc4)sc3n2)cc1	1.03	0.751
COc1ccc(-c2nnc(Nc3ccc4c(c3)ncn4-c3ccccc3C)c3ccccc23)cc1	0.805	-4.15
Cc1ccc(-c2nnc(Nc3ccc(Cl)c(Cl)c3)c3ccccc23)cc1S(N)(=O)=O	0.987	-0.392
O=c1[nH]c(-c2cccc(OCc3ccccc3F)c2)nc2sc3c(c12)CCCC3	1.09	1.88
CCc1ccc(N(CC)C(=O)Cc2c(C(=O)O)[nH]c3ccccc23)cc1	0.968	-0.706
COc1ccc(C(=O)NCCc2c(C)[nH]c3ccc(OC(F)(F)F)cc23)cc1	0.73	-3.92
CCOC(=O)c1cnc2c(C)c(Cl)ccc2c1Nc1cccc(Cl)c1	1.29	1.82
Cc1cccc(NCC(O)Cn2c(C)c(C)c3ccccc32)c1C (configuration not stated)	0.74	-11.8
CCC(C)NS(=O)(=O)c1ccc(NC(=O)c2c(-c3ccccc3)noc2C)cc1 (configuration not stated)	0.954	-0.517
O=C(NCCC1=CCCCC1)C1CCN(c2nnc(-n3cccc3)s2)CC1	0.914	-0.912
COc1ccccc1C(=O)N(Cc1nc(-c2ccc(Cl)cc2)no1)C(C)C	0.97	-0.555
Cc1noc(C)c1S(=O)(=O)N1CCCC(C(=O)Nc2cc(F)ccc2F)C1 (configuration not stated)	1.01	0.468
O=C(NCc1ccccc1Cl)C1CCN(S(=O)(=O)c2cccc3nsnc23)CC1	0.996	-0.123
CCOc1ccc(CCNC(=O)c2cc(C)nn2-c2ccccc2)cc1OCC	0.962	-0.971
Clc1ccc(-c2cn3cccnc3n2)cc1Cl	1.02	0.223
Cc1ccc(Nc2nc3nonc3[nH]c2=O)cc1C	1.22	1.59
Cc1ccc(N2CCN(C(=O)c3cc4c(s3)-c3ccccc3OC4)CC2C)cc1 (configuration not stated)	0.965	-1.71
O=C(NCC1CCCO1)c1ccc2c(c1)NC(=O)C1CCCN21 (configuration not stated)	0.983	-0.0728
COc1ccc2c(c1)c(=O)c(S(=O)(=O)c1ccccc1)cn2CC(=O)Nc1ccc(C)cc1C	1.02	0.347
O=C(Nc1nc(-c2ccc(Cl)cc2)cs1)c1ccc(S(=O)(=O)N2CCCCC2)cc1	0.931	-1.15
Cc1ccc(OCc2nc(C#N)c(NCc3cccnc3)o2)cc1	0.775	-4.09
CC(C)Nc1nc(-c2ccc(Cl)cc2)nc2ccccc12	0.992	-0.0265
CCOc1ccc(-n2ccnc2SCC(=O)Nc2ccccc2C(F)(F)F)cc1	0.513	-0.646
CC1CCc2nc3ccc(S(=O)(=O)N4CCC(C(=O)N5CCCC5)CC4)cc3c(C(=O)O)c2C1 (configuration not stated)	1.03	1.03
CC(C)(C)c1ccc(OCCn2c(N)nc3ccccc32)cc1	0.863	-1.76
Cc1cc(Br)ccc1NC(=O)c1cnc2sccn2c1=O	0.819	-2.14
CC1(C(=O)NC2CCCCCC2)CCC(=O)N1Cc1ccccc1 (configuration not stated)	0.908	-1.5
CCCCCn1c(C(C)NC(=O)CC)nc2ccccc21 (configuration not stated)	1.01	0.135
COCCCNC(=O)c1oc2ccc(S(=O)(=O)N3CCCC3)cc2c1C	1.01	0.308
Cc1ccc(-c2nc3ncccn3c2Nc2c(C)cccc2C)cc1	0.901	-1.93
CCOc1ccc2nc(SCC(=O)Nc3nc4ccccc4s3)sc2c1	1.08	0.711
COc1ccc(-c2noc(CCC(=O)NCCc3ccc(Cl)cc3)n2)cc1	1.04	0.511
COc1ccc(/C=C\c2onc(C)c2S(=O)(=O)N2CCC(C(=O)N3CCCCCC3)CC2)cc1	0.825	-0.365
CCOC(=O)c1ccc(NC(=O)c2nc(-c3ccc(C)cc3)oc2C)cc1	0.872	-1.77
CCn1cc(C(=O)O)c(=O)c2cc(S(=O)(=O)N3CC(C)CC(C)C3)ccc21 (configuration not stated)	1.13	1.49
CCn1c(C(=O)N2CCC(C(=O)NCc3ccc(C)cc3)CC2)cc2sccc21	0.869	-0.579
CC(NC(=O)CN1C(=O)COc2ccccc21)c1ccccc1 (configuration not stated)	0.957	-1.44
CCOC(=O)N1CCN(c2c(N3CCc4ccccc4C3)c(=O)c2=O)CC1	0.956	-1.26

New compounds follow:
SMILES | CBX7 AlphaScr | CBX7 AlphaScr z-score
COc1ccc(C(=O)N2CC(=O)Nc3ccc(F)cc3C2c2ccc(F)cc2)cc1 (configuration not stated) | 0.992 | -0.207
CCCOc1ccc(C(C)(O)CN2CCOCC2)cc1 (configuration not stated) | 0.983 | -0.585
CCOC(=O)c1sc(NC(=O)c2ccc(F)c(F)c2)nc1-c1ccccc1 | 0.997 | -0.055
Cc1ccc(OCCSc2nc3ccccc3n2CCO)c(C(C)C)c1 | 0.747 | -1.71
COc1ccc2nc(N3CCC(C(=O)NCc4cccnc4)CC3)sc2c1 | 0.903 | -1.63
Cc1ccc2cc(CCNC(=O)C(C)Oc3ccccc3)c(=O)[nH]c2c1C (configuration not stated) | 0.966 | -0.219
O=C(CCSc1ccccc1)Nc1cccc(-c2nc3ccccc3s2)c1 | 1.17 | 1.31
Cc1ccc(N2CCN(c3cc(C)nc4c(-c5ccc(Cl)cc5)c(C)nn34)CC2C)cc1 (configuration not stated) | 1.18 | 1.82
O=C(Cn1cc(S(=O)(=O)c2ccccc2)c(=O)c2cc(Cl)ccc21)Nc1ccc(F)cc1 | 0.889 | -1.59
CCN1CCN(c2ncc(C(=O)Nc3ccc(OC)c(Cl)c3)c3ccccc23)CC1 | 1.36 | 0.723
O=C(NC1CC1)c1ccc2nc(N3CCOCC3)sc2c1 | 1.23 | 2.15
COc1ccc(NC(=O)c2c(NCc3cccc(OC)c3)sc3c2CCC3)cc1 | 0.895 | -2.08
Cc1ccc(Nc2nc3nonc3nc2NC(C)(C)C)cc1C | 1.01 | 0.289
O=C(Cn1cc(S(=O)(=O)c2ccc(F)cc2)c(=O)c2ccccc21)Nc1cccc(Cl)c1 | 1.02 | 0.677
Cc1cc(NC(=O)C2CCN(c3nnc(-n4cccc4)s3)CC2)ccc1Br | 1.01 | 0.446
CCc1ccc(-c2nc3cc(NC(=O)c4ccc(-c5ccc(Cl)cc5)o4)ccc3o2)cc1 | 1.03 | 1.74
COc1ccc(CCNC(=O)CN(C)S(=O)(=O)c2ccc3c(c2)CCC(=O)N3)cc1OC | 1.09 | 1.98
Cc1ccc(C(=O)Nc2ccc3c(c2)ncn3-c2ccccc2)cc1 | 0.986 | -0.0138
CC1CCN(S(=O)(=O)c2ccc3[nH]c(=O)cc(C(=O)NCCC4=CCCCC4)c3c2)CC1 | 1.02 | 0.368
Cc1ccc(CCNC(=O)C2CCN(Cc3nc(-c4ccccc4C)oc3C)CC2)cc1 | 0.837 | -2.5
CCOC(=O)c1c(C)n(CCOc2cccc3ccccc23)c2ccc(O)cc12 | 0.976 | -0.288
Cc1ccc(Cn2c(C(C)O)nc3ccccc32)cc1 (configuration not stated) | 1.01 | 0.518
COc1cccc(C2CC(=O)Nc3cc(OC)c(OC)cc32)c1 (configuration not stated) | 0.953 | -0.602

Some of the compounds tested; the hit share may differ from the screen's.
